Screens from PubChem BioAssay.
RecA intein inh = Mtb RecA intein splicing inhibitors, primary screen, biochemical, fluorescence, HTS; Protein RecA (Mycobacterium tuberculosis (strain ATCC 25618 / H37Rv)), P9WHJ3; cell-free RecA intein splicing; inhibition, %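 (about 9 µM by stock and volumes)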; 290,000 tested, 0.75% active; AID 2221, 2009; in the data active = inhibition above about 30%; inconclusive = no clear call, values can overlap the other calls;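 note: 0% = vehicle wells and 100% = reference inhibitor control wells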
Target sequence (P9WHJ3 whole entry, looked up): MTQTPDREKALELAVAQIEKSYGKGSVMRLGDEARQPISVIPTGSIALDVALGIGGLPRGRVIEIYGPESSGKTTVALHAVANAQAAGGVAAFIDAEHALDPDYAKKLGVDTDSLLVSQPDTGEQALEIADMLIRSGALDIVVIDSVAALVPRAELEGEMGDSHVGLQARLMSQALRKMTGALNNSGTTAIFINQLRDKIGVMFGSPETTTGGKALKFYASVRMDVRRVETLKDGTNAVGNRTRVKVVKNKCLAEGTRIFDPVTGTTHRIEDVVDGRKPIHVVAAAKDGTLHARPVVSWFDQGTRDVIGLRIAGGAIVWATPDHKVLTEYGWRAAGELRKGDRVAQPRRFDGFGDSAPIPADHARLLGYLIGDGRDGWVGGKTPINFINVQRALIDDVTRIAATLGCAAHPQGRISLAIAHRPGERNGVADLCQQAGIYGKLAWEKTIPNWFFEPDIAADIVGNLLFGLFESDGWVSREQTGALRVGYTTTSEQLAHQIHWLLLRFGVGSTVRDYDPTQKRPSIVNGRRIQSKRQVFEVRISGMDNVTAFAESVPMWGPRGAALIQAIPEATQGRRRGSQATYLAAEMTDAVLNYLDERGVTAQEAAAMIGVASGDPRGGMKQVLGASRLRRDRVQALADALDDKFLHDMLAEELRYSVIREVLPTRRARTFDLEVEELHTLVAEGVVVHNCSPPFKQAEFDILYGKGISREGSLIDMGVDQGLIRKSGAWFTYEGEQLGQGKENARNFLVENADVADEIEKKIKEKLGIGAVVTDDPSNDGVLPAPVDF
Arbovirus inh = antivirals against arbovirus infection, primary screen, cell-based, full library, 10K replicate subset; 200,000 tested, 0.37% active; arbovirus infection cell-based antiviral screen; inhibition, % at 10 µM;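 active = inhibition from about 30%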;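 note: bluetongue infection of BSR cells; cell survival read as ATP light after 72 h; 0% = infected wells without compound and 100% = uninfected wells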
Mtb betalactam = beta-lactam sensitization of Mtb H37Rv, H37Rv; M. tuberculosis H37Rv growth with meropenem, percent inhibition; hits of this screen are not shown here; inhibition, % at 25 µM; 330,000 tested, 0.27% active; AID 434955, 2010;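 active = about 74% or more and at least 40 points above the plate without the antibiotic, then above 30% in a dose series; inconclusive = first-round hits that could not be retested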;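 note: growth measured after seven days incubation then overnight dye step; 0% = bacteria only wells and 100% = bacteria with antibiotic; twin plates without the antibiotic show which effects depend on it; some results filed as inactive read as strong as hits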
Mtb growth = M. tuberculosis H37Rv growth inhibitors, H37Rv strain (AID 1626); M. tuberculosis H37Rv growth inhibition; higher % means a stronger effect; one-dose inhibition, % at 10 µM; IC50 in µM for titrated hits; 220,000 tested, 0.95% active;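 active = confirmed in a dose series; inconclusive = inhibition above 80% but not taken into the dose series; inactive = below 80% or under 30% at every dose of the series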;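 note: bacteria incubated seven days before Alamar blue readout; 0% = bacteria only wells and 100% = bacteria with antibiotic wells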
YopH PTP inh = YopH tyrosine phosphatase inhibitors, primary screen, biochemical, fluorescence Ex485/Em525 | YopH tyrosine phosphatase [Yersinia enterocolitica] | inhibition, %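 (about 10 µM by stock and volumes)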 | 140,000 tested, 0.16% active;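 active = inhibition of 50% or more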;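 note: controls were vehicle for no effect and minimum signal wells for full effect; inactives centre near -20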
Numbers without * were called inactive; ? = inconclusive; / = no result given. Only part of the results is shown; the hit share may differ from the screen's.

mol,Arbovirus inh,RecA intein inh,Mtb betalactam,YopH PTP inh,Mtb growth
FC(F)(F)c1ccc(-n2cnc3ccccc32)nc1,/,-0.8,-10,/,/
O=C(Nc1ccc(Cc2ccc(NC(=O)N3CCOCC3)cc2)cc1)N1CCOCC1,3,5.3,3,-15,-6%
C=CCn1c(CSc2ccc(C)cc2)n[nH]c1=S,/,-0.2,3,/,/
CCOC(=O)Cn1c(=NC(=O)C2CC2)sc2c(C)cc(C)cc21,/,-3.6,/,/,2%
Cc1cccc(C)c1-n1c(C)cc(/C=N\Nc2ccc([N+](=O)[O-])cn2)c1C,-10,-1.5,100,-2,2%
CN(C)CCNC(=O)c1ccc(COCC(F)(F)F)cc1,1,-2.6,-9,-11,-4%
CCOC(=O)C(Cc1ccc(NC(=O)/C(=C/c2ccccc2)NC(=O)c2ccccc2)cc1)N1C(=O)c2ccccc2C1=O (stereo not drawn),-18,-3.7,26,-31,-1%
COc1ccc(-c2cc(C(=O)O)no2)cc1,6,0.7,-6,/,-1%
CCCNC(=O)CN(C)C(=O)c1n[nH]c2ccccc12,5,2.3,1,-35,-5%
COc1ccccc1CC(=O)Nc1ccc(F)cc1F,4,/,-4,/,-4%
COC(=O)c1cc(NC(=O)Cn2c(=O)cnc3ccccc32)cc(C(=O)OC)c1,-10,0.8,-12,-10,2%
Cc1ccc(NC(=O)c2cccnc2C(=O)O)nc1,/,-2.3,-5,/,/
COCC(=O)Nc1cc(OC)ccc1OC,1,-0.5,-5,9,-4%
Cc1c(NC(=S)/C=C2\N(C)c3ccccc3C2(C)C)c(=O)n(-c2ccccc2)n1C,12,0.9,-7,-45,-2%
CCCCN1C(N)=NC[C@@H]1Cc1ccc(O)cc1,/,-1.4,-7,/,-3%
O=C(Nc1ccc2c(c1)C(=O)NC2=O)c1ccc(Cl)s1,5,-2.0,6,/,/
CN(Cc1ccccc1)c1nc2c(c(=O)[nH]c(=O)n2C)n1CCCc1ccccc1,-13,6.6,4,-10,10%
O=C(NC1CCCCC1)c1cc2ccccc2cc1O,/,-4.8,?,/,48%
CC(C)NS(=O)(=O)c1ccc(NC(=O)NC2CCCCC2)cc1,-2,1.0,-4,-32,7%
O=C(c1cccnc1)N1CCN(c2ccc(Cl)cc2)CC1,3,-1.0,11,-28,2%
Cc1ccc(S(=O)(=O)/N=C(/Nc2ccc3[nH]c(=O)[nH]c3c2)c2ccccc2)cc1,2,1.6,3,/,4%
CCn1c(SCC(=O)N2CCOCC2)nc2ccccc21,1,-4.7,-4,/,-4%
O=C(CSCc1ccccc1)NCCCN1CCOCC1,6,0.9,-5,/,1%
COc1cc(OC)cc(C(=O)NCCOC23CC4CC(CC(C4)C2)C3)c1,-12,1.2,7,/,-2%
CC(C)CNS(=O)(=O)c1ccccc1C(=O)N1CCCCC1,-1,1.2,0,-18,-2%
O=C(c1cc2nc(-c3ccc(F)cc3)cc(C(F)(F)F)n2n1)N1CCCCC1c1cccnc1 (stereo not drawn),-8,-3.0,99,/,9.2µM*
CCOC(=O)C1CCN(C(=O)c2cc3cc4ccc(C)cc4nc3o2)CC1,/,0.3,6,/,/
CC(=O)N1CCOc2ccc(S(=O)(=O)N3C(C)CCCC3C)cc21 (stereo not drawn),/,0.1,3,/,/
CC(C)N(C(=O)CSc1nnc(Cc2ccc3c(c2)OCO3)n1C)C(C)C,6,/,2,/,3%
c1ccc(-c2cc(N3CCCCC3)nc(-c3ccccc3)n2)cc1,1,-2.8,15,-29,-5%
O=C(Nc1ccc(OCc2ccccc2)cc1)c1cccnc1,-10,3.0,1,-18,3%
CCCCOc1ccc(C(=O)N/C(=C/C=C/c2ccccc2)C(=O)NCCO)cc1,-26,0.6,10,-2,3%
Cc1ccc(C(=O)Oc2ccc([N+](=O)[O-])cc2)cc1S(=O)(=O)N1CCCCCC1,-2,30*,4,22,-3%
CCOc1cc(N2CCOCC2)c(OCC)cc1NC(=O)COc1ccccc1[N+](=O)[O-],-3,0.2,-9,/,5%
COc1ccc(-c2noc(CNC(=O)c3ccoc3C)n2)cc1OC,/,2.7,2,/,/
Cc1cc2n(n1)SC(Nc1ccc(F)c(Cl)c1)N2 (stereo not drawn),-4,0.7,?,11,-1%
CCOC(=O)N1CCN(c2c(NCc3cccs3)c(=O)c2=O)CC1,-7,-5.4,1,-51,4%
CS(=O)(=O)Nc1ccccc1C(=O)Nc1ccc2c(c1)OCCO2,1,1.4,14,-16,-13%
Cc1ccc(NC(=O)CN2CCN(c3ccccn3)CC2)cc1S(=O)(=O)N(C)C,-9,-0.1,-13,/,1%
O=C(Nc1ccccn1)[C@@H]1CCC(=O)N1C(=O)OCc1ccccc1,-2,1.1,-15,-37,-2%
CN1CCc2c(OCC(=O)N3CCCc4ccccc43)cccc2C1=O,2,0.3,0,/,1%
O=C(NCc1nnc(SCC(=O)N2CCCc3ccccc32)o1)c1ccccc1F,-5,1.9,5,/,4%
Cc1ccc2[nH]c(=O)c3cc(C(=O)N(C)C4CCCCC4)sc3c2c1,/,-4.5,2,/,/
COc1ccccc1NS(=O)(=O)c1cccc(-n2c(O)c(C=Nc3ccccc3C(=O)O)c3ccccc3c2=O)c1,/,19,-5,/,-8%
O=C(CCc1ccccc1)N1CCN(c2ccc([N+](=O)[O-])cc2)CC1,-3,6.1,2,/,1%
CCNC(=O)NNC(=O)C1CC(c2cccnc2)=NO1 (stereo not drawn),4,-3.9,0,/,7%
Cn1nc(C(F)(F)F)c(-c2ccc(F)cc2)c1NC(=O)c1ccco1,/,1.4,2,/,-5%
[O-][n+]1onc2c1CCc1[nH]c(-c3ccccc3)nc1-2,-7,-2.4,-1,/,-6%
COc1cc(NS(=O)(=O)c2ccc(OC)c(OC)c2)cc(OC)c1,9,1.9,-6,5,-3%
CC(C)(C)C(=O)NC1CC2CCCC(C1)N2C(=O)Nc1ccccc1F (stereo not drawn),/,-3.7,-2,/,/
CN(C)c1ccc(C(CNS(=O)(=O)c2ccc(F)cc2)c2c[nH]c3ccccc23)cc1 (stereo not drawn),-15,2.2,3,-24,11%
Cc1nn(C)cc1C1C(C#N)=C(N)N(c2ccc(F)c([N+](=O)[O-])c2)C2=C1C(=O)CCC2 (stereo not drawn),7,4.4,-2,-35,-3%
O=C(NNc1nc(-c2ccccc2)cs1)c1ccco1,-6,-1.7,97,-5,?
CCCCOc1ccc(NC(=O)C(=O)NCCC2=CCCCC2)cc1,-5,-0.3,-8,-4,-6%
Cc1nnc2n(-c3ccccc3)c(=O)c3c4c(sc3n12)COC(C)(C)C4,5,2.1,2,-17,-7%
CCC1(C(=O)c2ccccc2)C2c3cc(Br)ccc3OC(=O)C21C(=O)N1CCOCC1 (stereo not drawn),9,3.6,-11,8,0%
COc1ccc(-c2nnc3ccc(SCC(=O)Nc4cc(C)on4)nn23)cc1OC,6,5.1,16,/,0%
CC(C)CCNC(=O)c1ccc2c(c1)ncn2C1CCCCC1,-4,-1.3,18,23,-2%
COc1ccc2nc(/C=N/NC(=O)[C@H](CCSC)NC(=O)OC(C)(C)C)ccc2c1,2,-1.9,-1,-24,3%
O=C(NCC(c1ccco1)N1CCCC1)c1ccccc1Sc1ccc(C(F)(F)F)cc1[N+](=O)[O-] (stereo not drawn),/,2.1,7,/,/

(listing goes on)
mol,Arbovirus inh,RecA intein inh,Mtb betalactam,YopH PTP inh,Mtb growth
COC(=O)CSc1nnc(CNC(=O)c2ccccc2F)n1-c1ccccc1,2,-0.4,-1,/,-2%
Oc1cc(O)c2c(c1)O[C@H](c1ccc(O)c(O)c1)[C@@H](O)C2,/,59*,1,/,-9%
O=C(CCc1nc2ccccc2s1)c1ccccc1,-7,-0.8,12,11,19%
O=C(CCSCc1cccc(Cl)c1)NC1CCCC1,-9,-2.3,-1,-22,-5%
CC1CCC(C(=O)NC(C(=O)NCCCN2CCOCC2)C(C)C)CC1 (stereo not drawn),9,-0.6,4,-38,-2%
CCN(CC)S(=O)(=O)c1ccc(C(=O)NNC(=O)c2cccs2)cc1,1,0.8,/,-8,-7%
CCOC(=O)C1CCCN(CC(O)COC(c2ccccc2)c2ccccc2)C1 (stereo not drawn),/,0.5,1,/,/
CCOc1ccc(C(=O)n2cc(C(=O)OC)c3ccccc32)cc1OCC,/,7.2,1,/,/
O=C(NCc1ccccc1)c1c(F)c(F)c(F)c(F)c1F,2,-0.9,0,-39,-2%
O=C(C1=C[C@H](c2coc3ccccc3c2=O)C[C@H](OCc2ccc(CO)cc2)O1)N1CCN(Cc2ccccc2)CC1,-12,4.5,1,/,5%
CC(=O)N1CCN(C(=O)c2ccc3c(c2)OCCO3)CC1,/,1.5,-1,/,/
Cc1ccccc1NC(=O)Cn1cnc2c(oc3nc4c(cc32)COC(C)(C)C4)c1=O,3,-1.4,-3,-36,-3%
Clc1nccc(NCc2ccccc2)n1,/,0.7,-8,/,/
O=C(COc1ccc(Cl)cc1)NNC(=O)c1cccnc1,-2,1.5,0,/,-9%
CC(NC(=O)c1ccco1)C1CCCO1 (stereo not drawn),2,-1.0,-5,-10,-8%

By substructure: the compounds so far containing a COOH group (3)
mol,Arbovirus inh,RecA intein inh,Mtb betalactam,YopH PTP inh,Mtb growth
COc1ccc(-c2cc(C(=O)O)no2)cc1,6,0.7,-6,/,-1%
Cc1ccc(NC(=O)c2cccnc2C(=O)O)nc1,/,-2.3,-5,/,/
COc1ccccc1NS(=O)(=O)c1cccc(-n2c(O)c(C=Nc3ccccc3C(=O)O)c3ccccc3c2=O)c1,/,19,-5,/,-8%

Later entries
mol,Arbovirus inh,RecA intein inh,Mtb betalactam,YopH PTP inh,Mtb growth
CCOc1ccc(NC(=O)CN(C)C(=O)c2ccc(OCc3ccccc3)c(OC)c2)cc1OCC,/,0.6,4,/,/
Cc1c(C(c2ccc(O)cc2)c2c(C)n(C)n(-c3ccccc3)c2=O)c(=O)n(-c2ccccc2)n1C,3,3.2,2,/,8%
CC(C)COP(=O)(c1ccc(N(C)C)cc1)C(Nc1ccccc1)c1ccccc1 (stereo not drawn),-3,-1.5,3,-21,6%
Cc1ccc(C2=NS(=O)(=O)N(C)C(C(=O)NC3CCCC3)=C2)cc1,/,-5.7,1,/,/
CC(C)c1nc2sc3c(=O)n(N)cnc3c2c2c1COC(C)(C)C2,-10,-1.0,0,-33,-3%
O=S(=O)(c1ccc(F)cc1)N1CCN(c2ncccn2)CC1,/,-2.2,-7,/,-9%
Cc1cccc(-c2nnc(SCCOc3ccc4c(C)cc(=O)oc4c3)o2)c1,0,-1.8,-8,-12,16%
O=c1[nH]cnc2c1c(-c1ccccc1)cn2-c1ccccc1,/,1.2,4,/,/
Cc1nc(SCC(=O)NC(=O)NCc2ccco2)nc(C)c1C,5,1.0,5,/,-1%
COC(=O)c1c(NC(=O)C(C)C)sc2c1CCN(Cc1ccccc1)C2,/,3.8,4,/,/
NS(=O)(=O)c1ccc(CCNC(=O)c2cc3ccccc3oc2=O)cc1,/,0.4,-1,/,/
COc1cc(/C=N/NC(=O)Cc2c[nH]c3ccccc23)cc(OC)c1OC,-1,-1.7,-2,/,2%
O=C(CSc1ccccc1C(=O)O)Nc1cccc(C(=O)O)c1,3,-5.2,4,-58,-5%
O=C(Nc1cccc(S(=O)(=O)N2CCOCC2)c1)c1ccc2ccccc2n1,/,3.5,-3,/,13%
